Cruzain inh Det: cruzain (T. cruzi) inhibition with detergent. P25779. Potency, µM, without a hit: max response, negative = inhibition, hits mostly inhibitors. AID 1478. purified cruzain, Z-FR-AMC fluorescence, 0.01% Triton. 0.43% of 200,000 active;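 note: plate controls were neutral wells for no effect and buffer without enzyme for full effect; nearly all actives have a fitted effect of over 40% in size; top concentration of the series not given in the record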
Target sequence (P25779 123-467 limits assumed): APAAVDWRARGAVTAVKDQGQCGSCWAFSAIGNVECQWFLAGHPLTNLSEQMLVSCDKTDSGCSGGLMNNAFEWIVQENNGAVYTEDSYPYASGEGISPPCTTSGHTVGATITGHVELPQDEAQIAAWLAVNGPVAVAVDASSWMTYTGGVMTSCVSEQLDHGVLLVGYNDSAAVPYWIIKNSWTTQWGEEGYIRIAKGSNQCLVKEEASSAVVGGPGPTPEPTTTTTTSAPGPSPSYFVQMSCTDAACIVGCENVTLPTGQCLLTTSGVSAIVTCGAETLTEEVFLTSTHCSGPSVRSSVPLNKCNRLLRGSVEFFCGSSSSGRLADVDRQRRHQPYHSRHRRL
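Cysteine protease activity tested under reducing, mildly acidic conditions (100 mM sodium acetate pH 5.5, 5 mM DTT) plus 0.01% Triton X-100. Cruzain 1.5 nM; substrate Z-FR-AMC 2 uM; 15 min compound preincubation at room temperature.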
RE007 growth inh: less growth of the S. pombe RE007 Vpr strain; 0.21% of 360,000 active; Potency, µM (doses to about 92.2 µM), for the others: at the top dose activity change, negative = less growth; S. pombe RE007 Vpr strain, BacTiter-Glo ATP luminescence, 24 h; control for the full effect not named in the record; AID 651644; active = well fitted falling curve with a large enough effect; inconclusive = small, poorly fitted or top-dose-only effect; inactive = no such curve, though single readings can be large or run the other way;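 note: % is set by controls: 0 for no effect and ±100 for the full control effect; nearly all actives have a fitted effect of over 50% in size; the assay follows cell death caused by Vpr and the record does not say whether a fall means rescue or toxicity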
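Fission yeast strain RE007, carrying one chromosomally integrated HIV-1 vpr copy, was seeded at OD 0.01 in PMG+AL medium with 23 nL pinned compound. After 24 h at 30 °C and 99% humidity, viability was read by BacTiter-Glo luminescence.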
SARS PLP yeast: inhibitors of SARS-CoV papain-like protease in yeast; Potency, µM (series often up to 32.9 µM), for inactives: top-dose activity, positive = growth rescue; AID 485353; 0.19% of 330,000 active; S. cerevisiae expressing SARS-CoV PLpro, growth rescue; control for the full effect not named in the record; active means well fitted rising curve with a large enough effect; inconclusive means small, poorly fitted or top-dose-only effect; inactive means no such curve, though single readings can be large or run the other way; note: 0% is about no effect; nearly all actives have a fitted effect of over 55% in size; growth read by luminescence after 48 h
NS1 function inh: inhibitors of influenza NS1 protein function. S. cerevisiae slowed by influenza A NS1, growth recovery by OD600. Potency, µM (highest dose often 46.1 µM), for the others: at the top dose activity, positive = more growth. 0.4% of 270,000 active. AID 2326; active means well fitted rising curve with a large enough effect; inconclusive means small, poorly fitted or top-dose-only effect; inactive means no such curve, though single readings can be large or run the other way; note: nearly all actives have a fitted effect of over 50% in size
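Growth recovery, yeast-based: influenza A NS1 expressed in S. cerevisiae causes slow growth, and suppressors are detected by OD600. The parent strain without NS1 is used as positive control.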
Marburg entry inh: Marburg virus entry inhibition; Marburg virus pseudotyped entry inhibition, cell reporter; control for the full effect not named in the record; about a third of the inactives were read at about 46 µM; Potency, µM (titrated, usually from 37.8 µM), for inactives: at the highest dose activity change, negative = inhibition, hits mostly inhibitors; 1.8% of 300,000 active; active = well fitted inhibition curve with a large enough effect; inconclusive = small, poorly fitted or top-dose-only effect, or effect the other way; inactive = flat fitted curve, though single readings scatter; tested in HEK293 cells; about a fifth of its hits are not listed in these tables; note: % is set by controls: 0 for no effect and ±100 for the full control effect; luciferase read-out
Cruzain inh noDet: inhibitors of Trypanosoma cruzi cruzain without detergent; Potency, µM, inactives show max response, negative = inhibition, most hits filed as inhibitors; 2.3% of 200,000 active; purified cruzain, Z-FR-AMC fluorescence, no detergent; AID 1476;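 note: plate controls were enzyme without inhibitor for no effect and buffer without enzyme for full effect; nearly all actives have a fitted effect of over 40% in size; top concentration of the series not given in the record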
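Detergent-free condition (0.00005% Triton X-100) in acetate buffer pH 5.5 with DTT. 1.5 nM enzyme and compound were pre-mixed 15 min, then 2 uM Z-FR-AMC substrate added; reaction progress from fluorescence change between first and third reads (60 s).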
StopGo reporter: lowers the luciferase signal of an FMDV 2A StopGo reporter; human cells with a luciferase reporter of 2A StopGo recoding; control for the full effect not named in the record; Potency, µM (top dose mostly 57.9 µM), without a hit: at the highest dose signal change, negative = less light; 1.2% of 410,000 active; active = well fitted falling curve with a large enough effect; inconclusive = small, poorly fitted or top-dose-only effect; inactive = no such curve, though single readings can be large or run the other way; tested in HEK293T cells; note: % is set by controls: 0 for no effect and ±100 for the full control effect; nearly all actives have a fitted effect of over 45% in size; luciferase light after 4 h
Lassa entry inh: Lassa virus entry inhibition; Lassa virus pseudotype entry inhibition, cell reporter; control for the full effect not named in the record; Potency, µM (top dose mostly 37.9 µM), for the others: at the top dose activity change, negative = inhibition, actives largely listed as inhibitors; 1.2% of 300,000 active; active means well fitted inhibition curve with a large enough effect; inconclusive means small, poorly fitted or top-dose-only effect, or effect the other way; inactive means flat fitted curve, though single readings scatter; tested in HEK293 cells; note: % is set by controls: 0 for no effect and ±100 for the full control effect; nearly all actives have a fitted effect of over 50% in size; luciferase read-out
* marks the source's active call; other numbers are inactive results; u = inconclusive; x = not tested or not shown; & = joins results of further samples; [ ] = another dose, or the depositor's remark. Unless noted, calls come from the whole dose curve; as a rule, active = well fitted curve in the direction sought with a large enough effect; inconclusive = small, poorly fitted or top-dose-only effect, or another doubt; inactive = no such curve, though single readings can be large; an effect the other way counts as inactive or inconclusive. Potency is the fitted concentration of half-maximal effect.

SMILES	Cruzain inh Det	RE007 growth inh	SARS PLP yeast	NS1 function inh	Marburg entry inh	Cruzain inh noDet	StopGo reporter	Lassa entry inh
COc1ccc(Cl)cc1N(CC(=O)N/N=C/c1ccc(OC(C)C)cc1)S(=O)(=O)c1ccc(C)c([N+](=O)[O-])c1	-1.8%	-8%	-11%	23%	-3%	5µM*	-5%	u
COc1cc(CNCCO)cc(Br)c1OCc1cccs1	-0.3%	-10%	1%	23%	u	-1%	-28%	-15%
N/C(=N\S(=O)(=O)c1cc(C(F)(F)F)cc(C(F)(F)F)c1)c1cccs1	x	3%	0%	6%	x	x	33%[activator]	x
O=C(CN1CCN(S(=O)(=O)c2ccccc2)CC1)Nc1ccc(Cl)c([N+](=O)[O-])c1	x	5%	8%	x	-24%	x	u	-14%[46.1 µM]
CCCCOCCCNC(=O)Cc1cccs1	1.6%	-1%	3%	8%	-1%	-1%	-9%	-2%
CC(C)(C)C(=O)Nc1c2c(nn1-c1cccc(Cl)c1)CS(=O)(=O)C2	x	-5%	0%	-1%	x	x	0%	x
CCCCn1c(N)c(N(CC(C)C)C(=O)C2CCN(S(=O)(=O)c3ccc(C)c(C)c3)CC2)c(=O)[nH]c1=O	x	-5%	4%	0%	-25%[46.1 µM]	x	-2%	-16%[46.1 µM]
COc1ccc(NS(=O)(=O)CC(C)C)c(OC)c1	-1.9%	-7%	13%	7%	u	1%	-6%	8%
COC(=O)c1ccc(OCC(=O)NC(C)(C)C)cc1	1.4%	8%	5%	3%	7%	-3%	28%	-16%
Cc1cc(Cl)ccc1NC(=S)N1CCN(Cc2ccccc2)CC1	0.3%	x	-12%	-12%	u	1%	0%	u
Cc1ccc(OCCn2cnc3cc([N+](=O)[O-])ccc3c2=O)cc1	x	-6%	-1%	x	-7%	x	-12%	0%
Cc1ccc(SCc2c(C(=O)N/N=C/c3ccc4c(c3)OCO4)nnn2-c2nonc2N)cc1	x	-8%	1%	0%	x	x	-19%	x
COc1ccc(-c2nsc3c(SCc4ccccc4)ncnc23)cc1	4.5%	4%	7%	19%	15%	-20%	-3%	8%
O=C(O)CN1CCN(c2ncc(C(F)(F)F)cc2Cl)CC1	x	2%	0%	2%	15%[46.1 µM]	x	1%	14%[46.1 µM]
CC(=O)N/N=C/c1cc([N+](=O)[O-])ccc1OCCOc1ccccc1	1.8%	-23%	0%	6%	-14%	3%	-15%	0%
Cc1cccc(C)c1OCC(=O)NNC(=S)NC(=O)C1CC1	x	-7%	-14%	-119%	x	x	u	x
CCOc1ccccc1C(=O)NCC(=O)OCc1c(C)noc1C	-2.2%	-26%	10%	-8%	15%	-18%	u	-2%
Cc1cc(C)nc(NS(=O)(=O)c2ccc(NC(=O)c3ccc(S(=O)(=O)N4CC(C)OC(C)C4)cc3)cc2)n1 (stereo not drawn)	-9.0%	6%	17%	7%	29%	u	23%	3%
CCOC(=O)c1cc2c(ccn2C)n1CC(=O)N(Cc1ccccc1)c1ccccc1	-7.1%	31%	-9%	27%	u	-6%	u	u
O=C1N/C(=N\N=C\c2cccnc2)SC1Cc1ccc(SC(F)F)cc1 (stereo not drawn)	9.4%	18%	6%	-91%	u	-24%	0%	u
Cc1cc(NC(=O)c2ccc3[nH]c(C)c(C)c3c2)ccn1	x	-17%	2%	5%	-17%[46.1 µM]	x	-26%	-28%[46.1 µM]
CC1(C)CC(=O)C2=C(C1)N(c1ccccc1C#N)C(N)=C(C#N)C2c1cccs1 (stereo not drawn)	2.8%	7%	2%	12%	u	-6%	-31%	u
O=C(Nc1cc(C(F)(F)F)ccc1Cl)c1ccc2c(c1)CCN2S(=O)(=O)c1ccccc1	-3.0%	x	x	x	5%[46.1 µM]	-15%	-15%	17%[46.1 µM]
Cn1c(=O)c2cc(S(=O)(=O)N3CCOCC3)ccc2n(C)c1=O	-1.8%	6%	13%	3%	-2%	-8%	-23%	3%
CCOC(=O)N1CCC(N2CCN(c3cc(C)ccc3C)CC2)CC1	u	-15%	-2%	2%	-22%	-11%	u	-23%
O=C(Cn1c(=O)n(-c2ccc(F)c(Cl)c2)c(=O)c2sc3ccccc3c21)NC1CCCCC1	-0.3%	x	x	x	1%[46.1 µM]	-8%	-23%	-1%[46.1 µM]
CCCNc1nc(C)cc(-c2cc(C(=O)NCc3ccccc3)on2)n1	x	8%	-1%	0%	x	x	10%	x
COc1ccc(/C=N/NC(=O)c2ccc(N)cc2)cc1Cn1cc([N+](=O)[O-])cn1	x	18%	1%	x	7.9µM*	x	-17%	u
N#CCOc1nc(N2CCOCC2)nc(N2CCOCC2)n1	-0.9%	-10%	-6%	2%	-3%	6%	-4%	3%
COc1ccc(OC)c(CNC(=O)c2cc(S(=O)(=O)N3CCC(C)CC3)cn2C)c1	-4.6%	x	x	x	x	u	u	3%[46.1 µM]
O=C(CSc1ccc(-c2ccco2)nn1)Nc1ccccc1	x	8%	-1%	x	-18%[46.1 µM]	x	-29%	u
CC(C)c1nc2n[nH]c(N)c2c2c1CCCC2	6.0%	7%	-1%	5%	13%&13%	11%	3%	11%
CNC(=O)COc1ccc(Cl)c2cccnc12	x	6%	-3%	0%	x	x	-8%	x
NC(=O)CSc1nnc(-c2ccc3c(c2)OCO3)o1	x	-3%	0%	x	u	x	12%	-21%
Cc1nc(N)nc(N)c1/C=C/C(C)(C)c1ccc(Cl)cc1	x	-10%	-2%	-45%	x	x	u	x
CC(=O)Nc1ccc(CCCCc2ccc(NC(C)=O)cc2)cc1	x	20%	x	x	u	x	2%	u
Oc1ccc(-c2[nH]ncc2-c2ccc(Cl)cc2)c(O)c1	-5.8%	3%	2%	23%	-8%	-21%	-15%	u
O=C(c1ccc(NS(=O)(=O)c2ccc(F)cc2)cc1)N1CCOCC1	x	-14%	2%	x	0%	x	-14%	1%
CN(C(=O)COC(=O)c1ccc2c(=O)n3c(nc2c1)CCC3)C1CCS(=O)(=O)C1 (stereo not drawn)	x	3%	0%	2%	u	x	23%	-12%
COc1ccc(CSc2nnnn2-c2ccc(C(=O)O)cc2)cc1	x	-14%	3%	2%	x	x	10%	x
Cc1cccc(-c2nnn(Cc3nnc(NC(=O)c4ccccc4)s3)n2)c1	1.8%	3%	2%	-1%	-8%	u	-10%	-6%
COc1ccc(-c2[nH]ncc2CN(C)C(C)c2ccon2)cc1F (stereo not drawn)	x	-7%	-2%	4%	13%[46.1 µM]	x	-12%	3%
Brc1ccc2[nH]c3c(NCc4ccccn4)ncnc3c2c1	x	-25%	0%	-5%	0%[14.2 µM]	x	-5%	2%
CCOc1ccccc1C1C(C#N)=C(SCC(=O)OC)NC(=O)C1C(=O)OC (stereo not drawn)	-0.5%	5%[3.69 µM]	-2%	-1%	4%	10%	-11%	8%
O=C(CSc1nc(-c2ccccc2)no1)N1CCCCC1	-2.5%	x	x	x	u	-6%	-11%	-7%[46.1 µM]
O=C(CN1CCN(S(=O)(=O)c2ccccc2[N+](=O)[O-])CC1)NC(=O)NCc1ccco1	x	7%	-1%	0%	x	x	-6%	x
CCc1ccc(CNC(=O)CCCn2ccc3cc(S(=O)(=O)N4CCCC4)ccc32)cc1	-5.9%	x	x	x	x	4%	-32%	u
CCOc1ccc(S(=O)(=O)N2CCN(CC)CC2)cc1NC(=O)c1ccccc1F	x	18%	-2%	-5%	-18%[46.1 µM]	x	11%	13%[46.1 µM]
CC(=O)N1CCCN(Cc2nc(C3(c4ccc(C)cc4)CCCC3)no2)CC1	x	-16%	0%	-3%	0%[46.1 µM]	x	22%	7%[46.1 µM]
Cc1ccc(C(CC(=O)NCC2(c3ccccc3)CCCC2)c2ccccc2)c(O)c1 (stereo not drawn)	-7.5%	x	x	x	u	-1%	7.9µM*	u
COC(=O)NC1CCS(=O)(=O)C1 (stereo not drawn)	1.3%	12%	0%	-10%	-7%	-1%	18%	10%
COc1ccccc1NC(=O)C1=C(C)Nc2nc(CCCO)nn2C1c1ccc2c(c1)OCO2 (stereo not drawn)	3.5%	18%	18%	11%	-4%&5%	5%	-12%	u
Cc1ccccc1OCC(=O)Nc1nc2ccccc2[nH]1	x	0%	0%	x	u	x	76%[activator]	28%
Cn1cc(CN2CCN(c3ccc(Cl)cn3)CC2)c(-c2ccccc2F)n1	x	1%	0%	-1%	x	x	u	x
CSCCC(NC(=O)c1ccco1)C(=O)NCCc1ccc(Cl)cc1 (stereo not drawn)	x	1%	1%	x	8%	x	-19%	8%
COC(=O)c1ccccc1NC(=O)CNC(=O)c1ccc(OC)cc1	x	-3%	-1%	-7%	-11%[46.1 µM]	x	7%	-28%[46.1 µM]
CCOC(=O)CNC(=O)CSc1nnc(NC(=O)c2ccc3c(c2)OCO3)s1	x	-27%	2%	0%	u	x	-5%	u
Cc1ccc(S(=O)(=O)CCC(=O)OCC(=O)NC(=O)c2ccccc2)cc1	x	0%	-14%	x	6%	x	-16%	3%
Cc1nn(C)c(Oc2ccccc2)c1CCNS(=O)(=O)c1ccc(F)cc1	-1.6%	1%	17%	-8%	u	0%	-8%	-1%
N#C/C(=C/c1cn(-c2ccccc2)nc1-c1cccc(S(=O)(=O)N2CCCC2)c1)C(=O)NCc1ccco1	-13%	-4%	-1%	20%	-20%	u	14%	u
(next part)
SMILES	Cruzain inh Det	RE007 growth inh	SARS PLP yeast	NS1 function inh	Marburg entry inh	Cruzain inh noDet	StopGo reporter	Lassa entry inh
CC(=O)Nc1nnc(C)s1	1.0%	-6%	5%	-1%	x	0%	-24%	x
CC1CCN(c2c(NCc3ccc(C(=O)NCCc4ccc(Cl)cc4)cc3)c(=O)c2=O)CC1	-2.1%	23%	-5%	-5%	-21%	-9%	-16%	13%
CCc1ccc(NC(=O)Cn2c(=O)n(CCC(C)C)c(=O)c3cccnc32)cc1	-1.4%	x	x	x	u	-6%	-22%	x
O=C(ONc1ccc(N=NC(=O)c2ccccc2O)cc1)c1ccccc1	-3.0%	-10%	-9%	-4%	x	-8%	-4%	x
O=C(NCc1ccccc1)C1=C[C@@H](c2csc3ccccc23)C[C@@H](OCCCCO)O1	x	3%	-4%	3%	x	x	29%	x

Source: PubChem

Rows were taken by chance; 4.6% or so of the library scored in one or more.
